Screening data from PubChem.
Mtb growth – M. tuberculosis H37Rv growth inhibitors, H37Rv strain (AID 1626); inhibition, % at 10 µM, or IC50 in µM where a hit was titrated; hit rate 0.95% among 220,000; M. tuberculosis H37Rv growth inhibition; higher % means a stronger effect;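 active means confirmed in a dose series; inconclusive means inhibition above 80% but not taken into the dose series; inactive means below 80% or under 30% at every dose of the series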;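 further: bacteria incubated seven days before Alamar blue readout; 0% = bacteria only wells and 100% = bacteria with antibiotic wells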
Arbovirus anti – arbovirus infection inhibition. arbovirus infection cell-based antiviral screen. inhibition, % at 10 µM. hit rate 0.37% among 200,000;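 active means inhibition from about 30%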;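 further: bluetongue infection of BSR cells; cell survival read as ATP light after 72 h; 0% = infected wells without compound and 100% = uninfected wells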
RecA intein inh – blocks M. tuberculosis RecA intein splicing; P9WHJ3; cell-free RecA intein splicing, fluorescence; AID 2221; inhibition, %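 (about 9 µM by stock and volumes)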; hit rate 0.75% among 290,000; in the data active means inhibition above about 30%; inconclusive means no clear call, values can overlap the other calls;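 further: 0% = vehicle wells and 100% = reference inhibitor control wells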
Target sequence (P9WHJ3 whole entry, looked up): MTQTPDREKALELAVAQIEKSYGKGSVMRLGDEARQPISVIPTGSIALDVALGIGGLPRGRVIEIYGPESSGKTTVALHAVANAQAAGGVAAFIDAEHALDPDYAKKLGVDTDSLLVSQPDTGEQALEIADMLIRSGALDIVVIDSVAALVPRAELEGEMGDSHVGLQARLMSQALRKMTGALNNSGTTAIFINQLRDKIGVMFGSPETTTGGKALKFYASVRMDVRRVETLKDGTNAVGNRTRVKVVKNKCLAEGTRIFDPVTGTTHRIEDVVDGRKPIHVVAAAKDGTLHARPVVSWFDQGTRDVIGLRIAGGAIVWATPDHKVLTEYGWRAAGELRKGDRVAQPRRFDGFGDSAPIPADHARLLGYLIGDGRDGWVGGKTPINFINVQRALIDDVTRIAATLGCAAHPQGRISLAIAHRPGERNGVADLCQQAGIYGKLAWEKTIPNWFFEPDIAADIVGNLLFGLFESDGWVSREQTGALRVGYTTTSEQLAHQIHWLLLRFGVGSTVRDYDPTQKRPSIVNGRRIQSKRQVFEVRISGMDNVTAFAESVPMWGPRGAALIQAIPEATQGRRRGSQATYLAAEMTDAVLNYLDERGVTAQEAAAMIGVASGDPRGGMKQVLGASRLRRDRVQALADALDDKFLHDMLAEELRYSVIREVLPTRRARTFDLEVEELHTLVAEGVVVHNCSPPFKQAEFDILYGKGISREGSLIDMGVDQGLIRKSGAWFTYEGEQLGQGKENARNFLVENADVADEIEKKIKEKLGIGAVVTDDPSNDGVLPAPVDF
Mtb betalactam – beta-lactam sensitization of Mtb H37Rv; M. tuberculosis H37Rv growth with meropenem, percent inhibition; hits of this screen are not shown here; inhibition, % at 25 µM; hit rate 0.27% among 330,000;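 active means about 74% or more and at least 40 points above the plate without the antibiotic, then above 30% in a dose series; inconclusive means first-round hits that could not be retested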;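 further: growth measured after seven days incubation then overnight dye step; 0% = bacteria only wells and 100% = bacteria with antibiotic; twin plates without the antibiotic show which effects depend on it; some results filed as inactive read as strong as hits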
YopH PTP inh – blocks Yersinia enterocolitica YopH tyrosine phosphatase; fluorescence Ex485/Em525; inhibition, %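 (about 10 µM by stock and volumes)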; hit rate 0.16% among 140,000;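 active means inhibition of 50% or more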;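 further: controls were vehicle for no effect and minimum signal wells for full effect; inactives centre near -20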
Arbovirus anti repeat – second read-out of Arbovirus anti, no call of its own (marks repeat the call); inhibition, %; measured here: 10K subset replicate screen; many hits read low in the repeat;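 first of two repeat runs on a subset; 0% = infected and 100% = uninfected wells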
* = called active by the depositor. The list is partial, so the mix of outcomes need not match the whole.

`CC(C)(C)C(=O)Nc1cccc(-c2ncon2)c1` gave Mtb growth -12%, RecA intein inh 2.1 and Mtb betalactam -9.
COc1ccc2[nH]c(=O)c(CN(C(C)=O)c3ccc(C)cc3C)cc2c1 was read as RecA intein inh 1.7 and Mtb betalactam -1.
Nc1ccc(S(=O)(=O)c2ccc(Cl)cc2)cc1 was read as Mtb growth -4%, Arbovirus anti 13, RecA intein inh -0.3, Mtb betalactam -3 and YopH PTP inh -13.
`CCc1ccc(NC(=O)CC2C(=O)N(c3ccc(C)cc3)C(=O)N2C2CC2)cc1` (stereo not given) gave Mtb growth 0%, Arbovirus anti 14, RecA intein inh -0.6 and Mtb betalactam -4.
For O=S(=O)(Nc1ncccn1)c1ccc(NC(=S)Nc2ccccc2)cc1 the results were RecA intein inh -3.8 and Mtb betalactam 0.
`S=C(NCc1cccnc1)Nc1ccc2c(c1)OCO2` gave RecA intein inh -2.4 and Mtb betalactam 1.
Screening O=C(CCN1C(=O)CSC1=O)Nc1ccc(Br)cc1 returned Mtb growth -17%, Arbovirus anti 4, RecA intein inh -0.4, Mtb betalactam -1 and YopH PTP inh -15.
`O=C(O)c1ccc(NS(=O)(=O)/C=C/c2ccccc2)cc1O` gave Mtb growth 9%, Arbovirus anti 4, RecA intein inh 0.2, Mtb betalactam 96 and YopH PTP inh -53.
COC(=O)c1c(NC(=O)CC2SC(N)=NC2=O)sc2c1CCC(C)C2 (stereo not given) was read as Mtb growth 10%, Arbovirus anti -9, RecA intein inh -4.6, Mtb betalactam -3 and YopH PTP inh -13.
C1CCC(OCCN2CCN(CCOC3CCCCC3)CC2)CC1 was read as Mtb growth 2%, Arbovirus anti -11, RecA intein inh -1.0, Mtb betalactam -2 and YopH PTP inh -26.
`CC(NC(=O)c1ccccc1)C(=O)OCC(=O)c1ccc(Br)cc1` (stereo not given) gave RecA intein inh -6.0 and Mtb betalactam -4.
`Cc1ccc(OCC(O)CN2CCN(CCO)CC2)c(C)c1` (stereo not given) gave RecA intein inh 0.8 and Mtb betalactam -5.
`Cc1cc(NC(=O)CCC2CCCC2)no1` gave Mtb growth -10%, Arbovirus anti 2, RecA intein inh 1.1, Mtb betalactam -3 and YopH PTP inh -19.
Screening CO/N=C/NC(=O)c1ccc([N+](=O)[O-])c(CS(=O)(=O)c2ccc(Cl)cc2)c1 returned Mtb growth -2%, Arbovirus anti 0, RecA intein inh -0.4, Mtb betalactam -10 and YopH PTP inh -49.
Screening CCN1CCCC1CNC(=O)CSc1cc(=O)n(C)c2cc(Cl)ccc12 (stereo not given) returned Mtb growth 0%, Arbovirus anti 1, RecA intein inh 2.7, Mtb betalactam -7 and YopH PTP inh -24.
`O=C(c1cccc2ccccc12)N1CCN(CC2CC=CCC2)CC1` (stereo not given) gave Mtb growth 2%, Arbovirus anti -4, RecA intein inh 2.4, Mtb betalactam 9 and YopH PTP inh -23.
For COc1cccc(CCNC(=O)CC2C(=O)NCCN2Cc2ccc(C)o2)c1 (stereo not given) the results were RecA intein inh -3.2 and Mtb betalactam -5.
CCOC(=O)C1CCN(C(=O)/C=C/c2cc(OC)c(OC)c(OC)c2)CC1 was read as Mtb growth -4%, Arbovirus anti -6, RecA intein inh 1.4, Mtb betalactam -1 and YopH PTP inh -22.
`COc1ccc(C2CC(c3cccs3)=NN2C(=O)CCC(=O)O)cc1` (stereo not given) gave RecA intein inh 0.2 and Mtb betalactam -8.
O=[N+]([O-])c1ccc(N2CCN(C(=S)Nc3cccc(F)c3)CC2)cc1 was read as Mtb growth 6%, Arbovirus anti 5, RecA intein inh -1.1 and Mtb betalactam -6.
For O=C(CCn1c2c(c3ccccc31)CCCC2)NNC(=O)c1ccc(Cl)c([N+](=O)[O-])c1 the results were Mtb growth 13%, Arbovirus anti -9, RecA intein inh 0.2, Mtb betalactam 6 and YopH PTP inh -23.
`CC(=O)Nc1ccc(S(=O)(=O)N2CCC(NC(=O)C(Cc3cccn3C)NC(C)=O)CC2)cc1` (stereo not given) gave Mtb growth 0%, Arbovirus anti 12, Mtb betalactam -6 and YopH PTP inh -11.
For O=C(OC1CCCCC1=O)c1cc(S(=O)(=O)N2CCOCC2)ccc1F (stereo not given) the results were RecA intein inh 1.3 and Mtb betalactam 1.
`COc1cccc(/C=C2/C(=O)NN(c3ccc(Br)cc3)C2=O)c1O` gave RecA intein inh -5.6 and Mtb betalactam 94.
Screening CCC(=O)Nc1sc(Cc2ccccc2)c(C)c1C(N)=O returned Mtb growth 1%, Arbovirus anti -3, RecA intein inh 2.9 and Mtb betalactam -4.
For COc1ccc(OC)c(N(CC(=O)NCCc2ccc(OC)c(OC)c2)S(=O)(=O)c2ccccc2)c1 the results were RecA intein inh -5.0 and Mtb betalactam -2.
`COc1ccc(OC)c(S(=O)(=O)N2CCN(C)CC2)c1` gave Mtb growth -8%, Arbovirus anti 11, RecA intein inh 2.6, Mtb betalactam 1 and YopH PTP inh -28.
For CCN1CCN(C(=O)C2CC(c3ccc(F)cc3)=NO2)CC1 (stereo not given) the results were Mtb growth -3%, Arbovirus anti -3, RecA intein inh -0.7, Mtb betalactam inconclusive, YopH PTP inh 10 and Arbovirus anti repeat -6.
`CN1CCN(CCC(=O)N/N=C/c2cc([N+](=O)[O-])ccc2OC(F)F)CC1` gave Mtb growth -13%, Arbovirus anti 2, RecA intein inh -0.1 and Mtb betalactam -4.
Cc1nnc(SCc2cc(=O)[nH]c(Nc3nc(C)c4cc(C)c(C)cc4n3)n2)s1 was read as Mtb growth 4%, Arbovirus anti -8, RecA intein inh -1.4 and Mtb betalactam -6.
`CCN(CC)CCNC(=O)c1cc(S(=O)(=O)N2CCc3ccccc32)cn1C` gave RecA intein inh 1.5 and Mtb betalactam 6.
For CC(C)NC(=O)c1ccc2c3n(nc2c1)-c1ccc(Cl)cc1CO3 the results were Mtb growth -1%, RecA intein inh -1.0 and Mtb betalactam -3.
CCOc1ccc(C(=O)OCC(=O)Nc2cc(C)on2)cc1OCC was read as Mtb growth 7%, Arbovirus anti -4, RecA intein inh 1.2, Mtb betalactam 7 and YopH PTP inh -14.
Screening CCOC(=O)c1cccc(NS(=O)(=O)c2c(C)[nH]c(C)c2C(=O)N2CCCC2)c1 returned RecA intein inh -1.1 and Mtb betalactam 7.
`O=C(Nc1ccc(Cl)cc1)c1cc(Br)ccc1OCC(=O)N1CCOCC1` gave RecA intein inh 3.6 and Mtb betalactam 6.
For Cc1ccc(C)c(SCC(=O)Nc2nnc(-c3ccccc3)o2)c1 the results were Arbovirus anti 2, RecA intein inh -0.9, Mtb betalactam 91 and YopH PTP inh 30.

The last 5 entries of the section before are carried over, then new ones follow.
For CC(C)NC(=O)c1ccc2c3n(nc2c1)-c1ccc(Cl)cc1CO3 the results were Mtb growth -1%, RecA intein inh -1.0 and Mtb betalactam -3.
CCOc1ccc(C(=O)OCC(=O)Nc2cc(C)on2)cc1OCC was read as Mtb growth 7%, Arbovirus anti -4, RecA intein inh 1.2, Mtb betalactam 7 and YopH PTP inh -14.
Screening CCOC(=O)c1cccc(NS(=O)(=O)c2c(C)[nH]c(C)c2C(=O)N2CCCC2)c1 returned RecA intein inh -1.1 and Mtb betalactam 7.
`O=C(Nc1ccc(Cl)cc1)c1cc(Br)ccc1OCC(=O)N1CCOCC1` gave RecA intein inh 3.6 and Mtb betalactam 6.
For Cc1ccc(C)c(SCC(=O)Nc2nnc(-c3ccccc3)o2)c1 the results were Arbovirus anti 2, RecA intein inh -0.9, Mtb betalactam 91 and YopH PTP inh 30.
`CCOC(=O)c1ccc2nc(NC(=O)c3cccs3)sc2c1` gave Mtb growth 13%, Arbovirus anti 6, RecA intein inh -5.4, Mtb betalactam 84 and YopH PTP inh -23.
Screening Cc1ccc(S(=O)(=O)CCC(=O)NCc2ccccc2F)cc1 returned RecA intein inh -1.4 and Mtb betalactam 0.
Screening COC(=O)c1cc(OC)c(OC)cc1N1C(=O)CC(C)(C)CC1=O returned RecA intein inh -0.5 and Mtb betalactam 7.
For O=C1c2ccccc2CN1Cc1ccccc1 the results were RecA intein inh 0.1 and Mtb betalactam -1.
O=C(Nc1ccccc1)c1ccc(OC(=O)c2cc3ccccc3o2)cc1 was read as Mtb growth 12%, Arbovirus anti -4, RecA intein inh -2.3, Mtb betalactam 96 and YopH PTP inh -21.
For COCCCNC(=O)Cc1ccc(-n2c(C)nc3cccnc32)cc1 the results were RecA intein inh -4.0 and Mtb betalactam -2.
Screening CCN1CCN(CCCNC(=O)c2ccc3c(c2)NC(=O)/C(=C\c2cccc(C)c2)S3)CC1 returned RecA intein inh 4.6 and Mtb betalactam 6.
O=C(Oc1ccc(Br)cc1C(=S)N1CCCC1)c1ccccc1Cl was read as Mtb growth 2%, Arbovirus anti 2, RecA intein inh 1.7, Mtb betalactam 0 and YopH PTP inh -24.
For CCC(=O)NC(NCC1CCCO1)C(Cl)(Cl)Cl (stereo not given) the results were Mtb growth 0%, Arbovirus anti 4, RecA intein inh -1.4, Mtb betalactam -6 and YopH PTP inh -8.
`COc1ccc(NC(=S)N/N=C/c2ccc(F)cc2)cc1OC` gave Mtb growth 8%, Arbovirus anti 6, RecA intein inh -1.4 and Mtb betalactam 12.
Screening O=S(=O)(NC1CC2CCC1C2)c1ccc(Br)s1 (stereo not given) returned Mtb growth 8%, Arbovirus anti -4, RecA intein inh 2.2, Mtb betalactam 32 and YopH PTP inh -10.
Cc1ccc2c(c1)-c1c(ssc1=S)C(C)(C)N2C(=O)CSc1nncn1C was read as Mtb growth 3%, Arbovirus anti 5, RecA intein inh 47*, Mtb betalactam -1 and YopH PTP inh -38.

Overlap with the part before: two compounds; new compounds follow.
Screening O=S(=O)(NC1CC2CCC1C2)c1ccc(Br)s1 (stereo not given) returned Mtb growth 8%, Arbovirus anti -4, RecA intein inh 2.2, Mtb betalactam 32 and YopH PTP inh -10.
Cc1ccc2c(c1)-c1c(ssc1=S)C(C)(C)N2C(=O)CSc1nncn1C was read as Mtb growth 3%, Arbovirus anti 5, RecA intein inh 47*, Mtb betalactam -1 and YopH PTP inh -38.
`CCc1cc(=O)oc2cc(OC3CCCCC3=O)ccc12` (stereo not given) gave RecA intein inh 0.5 and Mtb betalactam 0.
Screening O=C(NCc1ccco1)c1cnn2c1NC(c1ccc(Br)cc1)CC2C(F)(F)F (stereo not given) returned Mtb growth 1.5µM*, Arbovirus anti -36, RecA intein inh 13, Mtb betalactam 100 and YopH PTP inh -24.
Screening COc1ccc(-c2cc3ccc(OCC(C)=O)cc3oc2=O)cc1OC returned RecA intein inh -7.6 and Mtb betalactam 5.
`Cn1c(=O)c2cc(S(=O)(=O)NC(C(=O)NCc3cccnc3)c3ccccc3)ccc2n(C)c1=O` (stereo not given) gave Mtb growth 2%, Arbovirus anti -2, RecA intein inh -1.1, Mtb betalactam 24, YopH PTP inh -25 and Arbovirus anti repeat 6.
Screening CNS(=O)(=O)c1cccc(C(=O)OCC(=O)c2cc3ccccc3o2)c1 returned Mtb growth 11%, Arbovirus anti 2, RecA intein inh -2.3 and Mtb betalactam -11.
For CSc1cnc2c(=O)[nH]c(=O)n(C)c2n1 the results were Mtb growth 1%, Arbovirus anti 1, RecA intein inh -5.9, Mtb betalactam 0 and YopH PTP inh -11.
`COc1c(N2CCN(C(=S)Nc3ccccc3F)C(C)C2)c(F)cc2c(=O)c(C(=O)O)cn(C3CC3)c12` (stereo not given) gave Mtb growth inconclusive, RecA intein inh 0.1 and Mtb betalactam 99.
Screening N#CCCN(Cc1cccnc1)C(=S)NCc1ccco1 returned Mtb growth 0%, Arbovirus anti 18, RecA intein inh 1.3 and Mtb betalactam 1.
Screening CN(Cc1ccccc1)S(=O)(=O)c1ccc(S(=O)(=O)N(Cc2ccc(F)cc2)C2CCCC2)cc1 returned Mtb growth -8%, Arbovirus anti -10, RecA intein inh 2.2, Mtb betalactam -5 and YopH PTP inh -16.
O=C(C[n+]1ccc(C(=O)NCc2ccccc2)cc1)c1ccc(Cl)cc1 was read as RecA intein inh -3.1 and Mtb betalactam -15.
`N#Cc1ccc(-c2csc(NC(=O)C3CC3)n2)cc1` gave Mtb growth 4%, Arbovirus anti 9, RecA intein inh -2.2, Mtb betalactam 15, YopH PTP inh -10 and Arbovirus anti repeat 10.
Screening CC(=O)Nc1ccc(NC(=O)C(=O)NCC(c2ccco2)N2CCc3ccccc3C2)cc1 (stereo not given) returned RecA intein inh 2.5 and Mtb betalactam -13.
For N#CC(C#N)=Cc1cc2ccccc2nc1N1CCOCC1 the results were Mtb growth 6%, Arbovirus anti 4, RecA intein inh -3.1, Mtb betalactam 10 and YopH PTP inh -31.
For Cc1ccc(NC(=O)C/C(N)=N/O)cc1Cl the results were Mtb growth 71%, RecA intein inh -3.0 and Mtb betalactam 94.
For CCOC(=O)CNC(=O)CSc1ncnc2c1cnn2Cc1ccccc1 the results were Mtb growth 9%, Arbovirus anti 1, RecA intein inh 1.5, Mtb betalactam 80 and YopH PTP inh -2.
